# Bioassay records: PubChem BioAssay, Southern Research Institute
# Mtb H37Rv = Mycobacterium tuberculosis H37Rv growth inhibition, cell based, confirmatory dose response (AID 1949) | most inactive calls were filed without a number and no value below 0 was filed | inhibition, % at 10 µg/mL, or IC50 in µg/mL where a hit was titrated | 100,000 tested, 1.6% active;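 active = confirmed in a dose series; inconclusive = about 50% or more but not retested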;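 also: bacteria grown 7 days with compound before Alamar blue readout; 0% = untreated bacteria and 100% = reference antibiotic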
# Numbers without * were called inactive; i = inactive; u = inconclusive. The list is partial; rates above refer to the full screens.
structure | Mtb H37Rv
Cc1ccc(S(=O)(=O)NCC(=O)Nc2ccc(Cl)cc2Cl)cc1 | 25.6%
COC(=O)Cc1ccc(NC(=S)Nc2ccc(N3CCOCC3)cc2)cc1 | i
COc1ccccc1NS(=O)(=O)c1ccc(C)c(C(N)=O)c1 | 5.7%
Cc1ccc(C(=O)N2CCC(C(=O)Nc3ccc(OCc4ccccc4)cc3)CC2)cc1 | i
Cc1ccc(-n2c(=O)oc3ccc(Cl)cc3c2=O)cc1 | i
CCOCC(=O)N1CCN(c2ccc([N+](=O)[O-])cc2)CC1 | i
S=c1nc(C2COc3ccccc3O2)[nH][nH]1 (stereo not given) | i
O=C(O)C1C2CCC(O2)C1C(=O)NCCc1ccccc1 (stereo not given) | i
CCOc1ccc(CNCCc2ccccc2)cc1 | i
CCOC(=O)c1cnc2c(ccc3ccccc32)c1Nc1ccc(NC(C)=O)cc1 | 1.8%
O=C(O)C1CCCCC1C(=O)NCc1ccccc1 (stereo not given) | i
CC(C)(C)c1ccc(C(=O)NC2(C(F)(F)F)N=C3SCCN3C2=O)cc1 (stereo not given) | 2.7%
Cc1ccc(N(CC(=O)Nc2ccc(C(C)C)cc2)S(=O)(=O)c2ccc(F)cc2)cc1 | i
COc1ccccc1OCC(=O)Nc1ccccc1C(=O)NC1CCCCC1 | 0.3%
COc1ccc(C(=O)C(C)Oc2cccc(NC(=O)c3cccc([N+](=O)[O-])c3)c2)cc1 (stereo not given) | i
O=C(CNC(=O)c1ccc(Br)cc1)c1ccccc1 | i
O=S(=O)(c1ccccc1)c1nc(NCc2ccccc2)sc1Cl | i
COc1ccc(CCNC(=O)c2ccccc2C(=O)NCCc2ccc(OC)cc2)cc1 | i
CS(=O)(=O)N(CC(=O)NCCSCc1cccc(Cl)c1)c1cccc(Cl)c1 | i
COc1cccc2cc(-c3nnc(SCC(=O)Nc4cccc(SC)c4)n3C)oc12 | 1.9%
Cc1cc(NC(=O)C2CCN(S(=O)(=O)c3cccs3)CC2)ccc1I | 5.7%
COc1ccc(CC(=O)Nc2cccc(C(=O)O)c2C)cc1 | i
CCCCSc1nnc2c(n1)[nH]c1c(C)cc(C)cc12 | i
CCCc1onc2c1C(=O)C(C(=O)OC)C(C)(C)C2 (stereo not given) | 1.4%
O=C(CSc1ccccc1)Nc1cc(Cl)c(O)c(Cl)c1 | i
c1ccc(-c2nc3ccccc3nc2-c2ccccn2)nc1 | i
Cc1ccccc1NC(=O)Nc1ccccc1Br | i
CC(=O)NC(=S)Nc1ccc(S(=O)(=O)NCCc2ccccc2)cc1 | i
COc1cc(NC(=O)c2c(OC)cccc2OC)ccc1NC(=O)c1cccs1 | 3.2%
C=CCn1c(SCC(=O)Nc2ccc(Br)c(C)c2C)nnc1-c1ccccc1C | 0.9%
Cc1cc(Br)ccc1OCCCN1CCN(C)CC1 | i
CCN(CC)C(=O)c1sc(NC(=S)N2CCc3ccccc3C2)c(C(=O)OC)c1C | i
COC(=O)c1ccc(NC(=O)CSc2nnc(-c3ccccc3F)n2Cc2ccco2)cc1 | i
CC(C)(C)c1cc(NC(=O)c2ccco2)no1 | i
Cc1ccc(C(=O)N2CCC(C)CC2)cc1Cl | 8.1%
O=C(CSc1ccccc1)Nc1ccc(Oc2ccc3c(c2)C(=O)NC3=O)cc1 | i
O=C(c1cccnc1)N1CCN(c2cccc(C(F)(F)F)c2)CC1 | 0.6%
COc1ccc2nc(SCC(=O)Nc3ccc(S(=O)(=O)Nc4nccc(C)n4)cc3)[nH]c2c1 | i
O=C(Nc1cccc(NC(=O)C(Cl)(Cl)Cl)c1)c1cccs1 | i
COc1ccccc1C(=O)Nc1ccc(S(=O)(=O)N2CCCCCC2)cc1 | 1.1%
O=C(c1cccc([N+](=O)[O-])c1)N1CCn2c1nc1ccccc12 | 5.6%
CCOC(=O)C1CCCN(C(=S)Nc2ccc(F)cc2)C1 (stereo not given) | i
Brc1c(OCCOCCn2cncn2)ccc2ccccc12 | i
O=C(O)c1cc(NC(=O)c2cccc(F)c2)cc(NC(=O)c2cccc(F)c2)c1 | i
Cc1cc(C(=O)Nc2ccon2)c(C)o1 | i
COc1ccc(S(=O)(=O)N(C)C)c(Cl)c1Cl | i
COc1cc(S(=O)(=O)N2CCCC2)c(OC)cc1Cl | i
O=C(N=Nc1c(O)[nH]c2ccc([N+](=O)[O-])cc12)c1cccnc1 | i
O=C1NC(=O)N(c2ccc(Cl)cc2)C(=O)/C1=C\c1ccc(O)c(O)c1 | i
O=C(CSc1nnc2scc(-c3ccccc3)n12)Nc1nc(-c2ccccc2)ns1 | i
COn1c(=O)c(-c2ccc(Cl)cc2)[n+]([O-])c2ccccc21 | i
O=C(Nc1ccc(Cl)cc1C(=O)N1CCOCC1)c1ccc(Cl)cc1Cl | i
COC(=O)c1sc(NC(=S)N2CCC(Cc3ccccc3)CC2)c(C(=O)OC)c1C | i
CCC(=O)NC(=S)Nc1cc(-c2nc3ccccc3s2)ccc1Cl | i
CCCc1cc(=O)[nH]c(SCC(=O)NC2CCCCC2)n1 | i
CCOc1cc(CO)cc(I)c1OCc1cccc(C(=O)O)c1 | i
Cc1cc(=O)oc2cc(OC(C)C(=O)NCc3ccccc3)ccc12 (stereo not given) | i
c1ccc2c(N3CCCCC3)nc(N3CCOCC3)nc2c1 | 4.0%
O=C(Nc1nnc(C(F)(F)F)s1)C(Sc1ccccc1)c1ccccc1 (stereo not given) | i
NC1=NC(=O)C(CC(=O)Nc2cccc([N+](=O)[O-])c2)S1 (stereo not given) | 1.6%

# (further entries)
structure | Mtb H37Rv
COc1ccc(NC(=O)CSc2nccc(=O)[nH]2)cc1Cl | 24.2%
COc1ccc(OCCOc2ccccc2F)cc1 | 5.7%
Cc1c(NC(=O)CSc2n[nH]c(-c3ccccc3)n2)c(=O)n(-c2ccccc2)n1C | i
CCOc1ccccc1OCC(=O)Nc1c(C)cc(C)cc1Cl | 6.9%
CS(=O)(=O)N(CC(=O)Nc1cc(Cl)cc(Cl)c1)c1ccccc1F | 0.6%
CC1CN(C(=O)C(C)(C)C)C(C)CN1C(=O)C(C)(C)C (stereo not given) | i
O=C(COc1ccc(S(=O)(=O)N2CCCc3ccccc32)cc1)NCc1ccco1 | i
O=C1N/C(=C\c2ccccc2)c2ccccc21 | 0.9%
O=C(Nc1ccc([N+](=O)[O-])c(NC(=O)C2CCCO2)c1)C1CCCO1 (stereo not given) | 2.9%
COc1ccc(NC(=S)Nc2ccc3c(c2)OCCO3)c(OC)c1 | i
C=CCNC(=S)N1CCN(c2nc(C(C)C)c3c(c2C#N)CC(C)(C)OC3)CC1 | 6.0%
CCn1c(Cc2c(C)[nH]c3ccccc23)n[nH]c1=S | 6.0%

# Part of the list above in another layout:
> Cc1c(NC(=O)CSc2n[nH]c(-c3ccccc3)n2)c(=O)n(-c2ccccc2)n1C
  Mtb H37Rv = i
> O=C(COc1ccc(S(=O)(=O)N2CCCc3ccccc32)cc1)NCc1ccco1
  Mtb H37Rv = i
> CCn1c(Cc2c(C)[nH]c3ccccc23)n[nH]c1=S
  Mtb H37Rv = 6.0%
> CS(=O)(=O)N(CC(=O)Nc1cc(Cl)cc(Cl)c1)c1ccccc1F
  Mtb H37Rv = 0.6%

# (listing goes on)
structure | Mtb H37Rv
CCC(C)c1ccc(OCC(=O)NNC(=O)C2CCCCC2)cc1 (stereo not given) | i
CCOc1ccc(N(CC(=O)Nc2cccc(C)c2C)S(=O)(=O)c2ccc(Cl)cc2)cc1 | i
CCOc1ccc(C(=O)Nc2ccc(N3CCOCC3)cc2)cc1Br | i
O=C(CCCOc1ccc(Cl)cc1Cl)Nc1ccccc1 | i
COc1ccc(N2C(=O)C(Cl)=C(Nc3cc(OC)ccc3OC)C2=O)cc1 | i
CC(C)(C)c1ccc(C(=O)CC2(O)C(=O)Nc3ccc(Cl)cc32)cc1 (stereo not given) | i
c1ccc(Cn2c(NCc3cccs3)nc3ccccc32)cc1 | 37.1%
Cc1cc(C)c(C(=O)Nc2nc(-c3ccc(Br)cc3)cs2)c(C)c1 | i
Cc1cc(NC(=S)NC(=O)c2cc3ccccc3o2)ccc1Br | i
COc1ccc(C(=O)c2nc3ccccc3n2C)cc1 | 4.3%
C(=C\c1ccccc1)/CN1CCN(CCCc2ccccc2)CC1 | i
Cc1cc(NC(=O)c2nc3ncccn3n2)no1 | i
Cc1cc(C)cc(C(=O)NCCC2=CCCCC2)c1 | i
COc1ccc(C(=O)NCCNc2ccc([N+](=O)[O-])cc2)cc1 | 3.4%
C=CCN(CC=C)C(=O)c1ccc2snnc2c1 | 5.9%
O=C(Cn1nc(C(F)(F)F)c2c1CCC2)N1CCN(Cc2ccccc2)CC1 | 3.3%
CCc1cc(C(=O)OC)c(NC(=S)NNC(=S)Nc2ccc(Cl)cc2)s1 | i
CCOc1cc(CNCc2ccccc2)ccc1OCC(=O)NC1CCCCC1 | i
CCC(C(=O)Nc1c[nH]c(=O)[nH]c1=O)c1ccccc1 (stereo not given) | i
COc1ccccc1C1CC(c2ccc(Cl)cc2)Nc2ncnn21 (stereo not given) | u
CSc1ccccc1C(=O)Nc1c(C)cccc1C(C)C | u
CCOC(=O)c1ccc(NC(=O)c2ccc(N(Cc3ccc(C)cc3)S(C)(=O)=O)cc2)cc1 | i
CCCC(=O)NC(=S)Nc1ccc2oc(-c3cncc(Br)c3)nc2c1 | i
CN(C)c1nc(Oc2ccc(=O)n(-c3ccccc3)n2)nc(N(C)C)n1 | i
COC(=O)c1sc2cc(NC(=S)Nc3ccc(C(=O)N4CCOCC4)cc3)ccc2c1Cl | 2.7%
CCn1c(SCC(=O)Nc2nccs2)nnc1-c1ccc(C)cc1 | i
COc1ccccc1N(CC(=O)NCc1ccc(Cl)cc1Cl)S(=O)(=O)c1ccc(C)cc1 | i
COc1ccc(OCC(=O)Nc2cccc(NC(=O)c3ccco3)c2)cc1 | i
CS(=O)(=O)N1CCN(c2ccc(NC(=O)c3cc(I)ccc3Cl)cc2)CC1 | i
O=C(Nc1ccccc1-c1nc2ccccc2s1)c1ccc(N2CCCCC2)c([N+](=O)[O-])c1 | i
CCOc1ccc(C(C)NC(=S)Nc2cccc(C(C)=O)c2)cc1 (stereo not given) | i
O=C(CN(Cc1ccccc1)S(=O)(=O)c1ccc(Br)cc1)Nc1cccc(F)c1 | i
Cc1c(Cc2ccccc2)c(=O)oc2cc(OCC(=O)O)ccc12 | 10.8%
CN(C)S(=O)(=O)c1cc(C(=O)NCC2CCCO2)c(Cl)cc1Cl (stereo not given) | i
CN(CC(=O)N1CCCC1)S(=O)(=O)c1cc(Cl)ccc1Cl | 1.0%
COc1cc(/C=N/NC(=O)c2n[nH]c3c2CCCC3)ccc1O | i
COC(=O)c1cc(NC(=S)N2CCN(C/C=C/c3ccccc3)CC2)cc(C(=O)OC)c1 | 1.2%
Cc1ccccc1-c1cc(C(=O)NC2=NCCS2)c2cc(Cl)ccc2n1 | 24.4%
N#CC1(c2ccccc2)CCC(=O)N1CCO (stereo not given) | i
CCS(=O)CCSc1nc(-c2cccs2)cc(C(F)(F)F)c1C#N (stereo not given) | i
CCOC(=O)N1CCN(C(=O)c2c(-c3ccccc3Cl)noc2C)CC1 | i
Cc1ccc(C)c(N2CCN(S(=O)(=O)c3ccc(F)cc3)CC2)c1 | i
Cc1cc(NS(=O)(=O)c2ccc(NC(=O)CCCOc3ccccc3C)cc2)nc(C)n1 | i
CCOC(=O)c1cnc2cc(-c3cccc(C)c3)[nH]n2c1=O | i
CS(=O)(=O)N1CCN(C(=O)c2cccc(C(F)(F)F)c2)CC1 | i
O=C(Nc1ccccc1)c1sc(-c2cccnc2)nc1-c1ccccc1 | i
COc1ccc(OC)c(NC(=O)C(C)Oc2ccc(Br)cc2)c1 (stereo not given) | i
CC(C)Oc1ccc(-c2cc(C(=O)O)c3ccccc3n2)cc1 | i
CC(=O)c1ccc(OCCCN2CCN(C)CC2)cc1 | 0.4%
CC(=O)c1ccc(N2CCCCCC2)c(F)c1 | 2.1%
COc1ccccc1NC(=S)NCCc1ccc(OC)c(OC)c1 | 0.2%
S=C(Nc1ccccc1)Nc1ccc(N2CCOCC2)cc1 | i
C=CCNc1oc(-c2cccc(C)c2)nc1C#N | i
C=CCN(CC=C)C(=O)c1ccc(C)s1 | i
Cc1ccc2nc(NS(=O)(=O)Cc3ccccc3)sc2c1 | i
Cc1ccc(C(=O)N2CCN(c3ccc(NC(=O)Cc4ccc(Cl)cc4)cc3)CC2)cc1 | i
COc1ccc(C2=NN(C(=O)c3cc(OC)c(OC)c(OC)c3)C(c3ccc(N(C)C)cc3)C2)cc1OC (stereo not given) | i
Cn1c(Nc2cccc(Cl)c2)nc2ccccc21 | 10.9%
CC(=O)c1ccc(NC(=O)COc2ccc(C)cc2C)cc1 | 2.2%
Cc1ccc(S(=O)(=O)NCc2ccc(C(C)C)cc2)cc1 | 10.4%

# Carrying on:
structure | Mtb H37Rv
COc1ccc(/C(N)=N/OC(=O)c2ccc([N+](=O)[O-])c(C)c2)cc1OC | i
O=C(NCc1ccncc1)c1c(F)cccc1F | 0.5%
Cc1cc(C)nc(SCC(=O)Nc2ccccn2)n1 | i
CCCC(=O)Nc1ccc(Cl)c(NC(=O)COc2ccc(Br)cc2)c1 | i
CCC(C(=O)O)n1cnc2scc(-c3ccc(Cl)cc3)c2c1=O (stereo not given) | i
O=C(Nc1ccc(N2CCOCC2)c(Br)c1)c1ccccc1 | 2.3%
O=C(NCCCO)Nc1ccc2nc(-c3ccco3)c(-c3ccco3)nc2c1 | i
CCOC(=O)c1c(NC(=S)NN2CCOCC2)sc2c1CCCCC2 | i
